# Screening data as filed in PubChem.
# Mtb hypoxia inh: reduces hypoxia-regulated biosensor signal in M. tuberculosis; M. tuberculosis hypoxia-regulated fluorescent reporter, fluorescence; AID 1159583; 300,000 tested, 0.1% active; fluorescence inhibition, % (test concentration not listed);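 active = 35 to 45% if threefold the growth effect, above 45% if 1.5-fold the growth effect; inactive = the rest, general growth blockers included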;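 note: wells of about 50 µL received 100 nL stock; 0% = vehicle wells and 100% = reference inhibitor wells; whole bacteria with a GFP reporter of the hypoxia response; strong numbers were not always called active; many hits fall short of the cut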
# Autofluor counter: compound fluorescence in toxin protease inhibitor counterscreen; fluorescence intensity (test concentration not listed); 360,000 tested, 3.1% active; compound autofluorescence counterscreen, microsphere flow cytometry; active compounds read high;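 active = at least 3 SD above the mean of all compounds, about 16000 in these data; inconclusive = too few beads counted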;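 note: 100 nL of 1 mM stock went into each well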
# RN4220 kill: kills Staphylococcus aureus RN4220; S. aureus RN4220 growth, OD600, 16 h; inhibition, % (concentration not given with the values); 330,000 tested, 0.33% active;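 active = z-score of -3 or lower and OD600 up to 0.18 on both plates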;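 note: plate controls were untreated cells for no effect and reference antibiotic for full effect; stock transfer was 100 nL into about 80 µL; one replicate is shown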
# BJeLR viability: kills HRASV12-expressing BJeLR cells; BJeLR (HRASV12) viability, CellTiter-Glo ATP luminescence, 48 h; reference of the scale not given here; inhibition, % (concentration not given with the values); 300,000 tested, 0.17% active; AID 1554;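 active = replicate mean above 50%; inconclusive = above 50% but judged a plate artefact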;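 note: 50 nL library stock added to about 25 µL; numbers are from one replicate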
# Sa ugtP lethal: growth inhibition of S. aureus ugtP deletion strain | AID 1259309 | growth inhibition, % (concentration not given with the values) | S. aureus RN4220 ugtP deletion, OD600 growth, 16 h; some inactives read as strong as hits | 330,000 tested, 0.54% active;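 active = z-score under -3 and OD600 up to 0.15 on both plates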;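 note: plate controls were untreated wells for no effect and antibiotic for full effect; wells of about 80 µL received 100 nL stock; the first replicate is given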
# PrP UTR inh: inhibition of PrP 5' UTR reporter expression; 340,000 tested, 0.35% active; cell-based PrP 5' UTR mRNA reporter, plate reader; inhibition, % (test concentration not listed);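 active = every replicate at 50% or more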;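 note: 0 = median of the neutral control wells; tested in H4 reporter cells; numbers are from one replicate; inactives centre near -14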
# Mtb hypoxia inh growth: also measured in Mtb hypoxia inh; calls as there; growth inhibition, %; measured here: M. tuberculosis growth (absorbance);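 0% = vehicle and 100% = reference antibiotic; read after six days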
# Numbers without * were called inactive; ? = inconclusive; · = no result given.
SMILES,Mtb hypoxia inh,Mtb hypoxia inh growth,Autofluor counter,RN4220 kill,BJeLR viability,Sa ugtP lethal,PrP UTR inh
CC(CCN(C)C)OC(=O)c1ccc(C(C)c2ccccc2)o1 (configuration not stated),17.7,12.6,12639,3.0,-5.8,-2.3,-22.8
O=C(NC1CCCCCC1)C(=O)NC1CCCC1,8.1,4.8,2043,2.3,2.0,4.6,-82.3
CC(NC(=O)c1ccc(Cl)c(S(=O)(=O)N2CCCCCC2)c1)c1cccnc1 (configuration not stated),12.2,1.1,3053,2.6,·,9.3,-1.6
CC(=O)N1CCN(Cc2nc3cc([N+](=O)[O-])ccc3n2C)CC1,14.4,11.6,3385,1.2,-6.8,3.0,-4.4
O=C(NCc1cccc(F)c1)C1CCC(=O)N(C2CCCC2)C1 (configuration not stated),8.2,8.5,5882,0.2,6.8,20.0,-16.2
COc1ccc(-c2nnc(SCC(=O)Nc3ncc(C(F)(F)F)cc3Cl)n2CC(C)C)cc1,-3.6,-1.2,2519,1.8,6.2,9.9,1.2
CC(=O)NC1=NN(C(C)=O)C(C)(CCS(=O)(=O)c2ccc(Br)cc2)S1 (configuration not stated),-3.6,-0.8,10350,-2.3,-0.8,4.8,-23.1
COc1ccc(C(=O)N(C)C2CCCc3ccccc32)cc1OC1CCN(C(C)C)CC1 (configuration not stated),14.7,14.7,6188,-0.3,-7.1,5.1,-28.5
O=C(c1ccco1)N1CCN(c2nnc(-c3ccccc3)c3ccccc23)CC1,2.3,13.2,5929,2.3,-2.0,14.7,-20.7
Cc1ccc(S(=O)(=O)N(Cc2ccccc2)C(C)C)cc1,-0.3,1.5,3415,5.5,-2.3,6.9,-22.7
CCN(C(=O)Cc1cccs1)c1nnc(-c2cccnc2)s1,13.3,9.7,4499,4.2,·,4.0,-24.7
O=C(c1ccc(Cl)c(S(=O)(=O)N2CCOCC2)c1)N1CCN(c2ccccc2F)CC1,8.3,-2.0,?,0.7,2.6,9.5,-3.8
O=C(NCCN1C(=O)CSC1=O)C1CC(=O)N(c2ccccc2)C1 (configuration not stated),4.5,7.9,9389,0.2,-3.3,2.8,-5.5
Cc1ccc(S(=O)(=O)NCC(=O)Nc2ccc3c(c2)OCCO3)cc1,16.1,6.6,5189,2.7,2.3,-0.9,-13.3
CCN(CC)S(=O)(=O)c1ccc(N2CCN(CCOc3ccc(OC)cc3)CC2)nc1,-0.2,1.1,3632,-0.4,15.5,12.3,-21.9
COC(=O)c1ccc(NC(=O)CSCC(=O)OCC(=O)c2ccc(Br)cc2)cc1,3.3,1.3,9089,-0.6,-20.1,-0.7,-23.0
CN(C)S(=O)(=O)c1ccc(N2CCCC2)c(C(=O)Nc2nccs2)c1,5.5,2.5,5586,7.3,·,6.9,3.9
O=C(/C=C/c1ccc(F)cc1)NC(=S)NC1CCCCC1,0.4,14.0,4475,4.3,1.8,24.5,5.2
Cc1cc(NC(=O)c2c([N+](=O)[O-])c(C)nn2C)no1,·,·,4859,3.7,-3.0,0.6,-21.0
Cc1ccc(C(=O)CCC(=O)OCC(=O)Nc2ccc3[nH]c(=O)[nH]c3c2)cc1,-2.3,-8.4,?,6.3,3.5,9.3,-23.5

# Reformatted with bars between the fields: ten of the compounds above
SMILES | Mtb hypoxia inh | Mtb hypoxia inh growth | Autofluor counter | RN4220 kill | BJeLR viability | Sa ugtP lethal | PrP UTR inh
COc1ccc(C(=O)N(C)C2CCCc3ccccc32)cc1OC1CCN(C(C)C)CC1 (configuration not stated) | 14.7 | 14.7 | 6188 | -0.3 | -7.1 | 5.1 | -28.5
O=C(c1ccco1)N1CCN(c2nnc(-c3ccccc3)c3ccccc23)CC1 | 2.3 | 13.2 | 5929 | 2.3 | -2.0 | 14.7 | -20.7
Cc1ccc(S(=O)(=O)N(Cc2ccccc2)C(C)C)cc1 | -0.3 | 1.5 | 3415 | 5.5 | -2.3 | 6.9 | -22.7
CCN(C(=O)Cc1cccs1)c1nnc(-c2cccnc2)s1 | 13.3 | 9.7 | 4499 | 4.2 | · | 4.0 | -24.7
O=C(c1ccc(Cl)c(S(=O)(=O)N2CCOCC2)c1)N1CCN(c2ccccc2F)CC1 | 8.3 | -2.0 | ? | 0.7 | 2.6 | 9.5 | -3.8
O=C(NCCN1C(=O)CSC1=O)C1CC(=O)N(c2ccccc2)C1 (configuration not stated) | 4.5 | 7.9 | 9389 | 0.2 | -3.3 | 2.8 | -5.5
Cc1ccc(S(=O)(=O)NCC(=O)Nc2ccc3c(c2)OCCO3)cc1 | 16.1 | 6.6 | 5189 | 2.7 | 2.3 | -0.9 | -13.3
CCN(CC)S(=O)(=O)c1ccc(N2CCN(CCOc3ccc(OC)cc3)CC2)nc1 | -0.2 | 1.1 | 3632 | -0.4 | 15.5 | 12.3 | -21.9
COC(=O)c1ccc(NC(=O)CSCC(=O)OCC(=O)c2ccc(Br)cc2)cc1 | 3.3 | 1.3 | 9089 | -0.6 | -20.1 | -0.7 | -23.0
CN(C)S(=O)(=O)c1ccc(N2CCCC2)c(C(=O)Nc2nccs2)c1 | 5.5 | 2.5 | 5586 | 7.3 | · | 6.9 | 3.9

# (cont.)
SMILES,Mtb hypoxia inh,Mtb hypoxia inh growth,Autofluor counter,RN4220 kill,BJeLR viability,Sa ugtP lethal,PrP UTR inh
COc1cc(NC(=O)N[C@@H](CCSC)C(=O)O)cc(OC)c1,-7.6,3.9,4524,5.8,-0.1,12.4,-4.1
CC(=O)c1ccc(Nc2cc(C)nc3c(C)cccc23)cc1,-5.9,2.8,2332,3.0,13.6,9.2,26.8
O=C(Nc1cccc2ncccc12)c1cccc(Br)c1,5.8,-0.1,3031,1.0,3.7,-0.3,-15.3
O=C(CN1C(=O)NC(Cc2c[nH]c3ccccc23)C1=O)Nc1ccc(F)c(F)c1F (configuration not stated),-0.8,-1.2,5480,3.4,·,0.0,-10.5
COc1cccc(N=Cc2c(O)n(-c3cccc(C)n3)c(=O)c3ccccc23)c1,4.0,9.2,9699,6.1,-10.9,-4.7,-37.0
COc1ccc([C@@H]2[C@@H]3C(=O)N(C(C)(C)C)C(=O)[C@@H]3[C@]3(C)C(=O)N(c4cccc(Cl)c4)C(=O)N23)cc1,·,·,3898,·,-6.1,·,-11.3
Cc1cc(Cl)c(Cl)cc1S(=O)(=O)NCCCn1ccnc1,1.2,6.5,?,5.3,1.6,3.6,-3.0
CN1CCN(C(=S)Nc2cccc(S(=O)(=O)N(C)C)c2)CC1,2.7,-2.3,2318,7.1,-5.5,7.8,-18.1
O=C(COC(=O)Cc1ccc(S(=O)(=O)N2CCOCC2)s1)Nc1ccc(OC(F)F)cc1,4.6,11.3,3733,1.1,·,-0.2,1.1
CCSCc1nnc(SCC(=O)c2ccc(OC)cc2)n1C,16.0,9.5,3319,5.9,-4.5,-1.2,-22.0
Cc1cc(C)c(NS(=O)(=O)c2cccc3cccnc23)c(C)c1,-0.3,3.1,4631,2.6,5.1,-4.5,6.6
COc1cccc(NC(=O)NC(C)C2CC3CCC2C3)c1 (configuration not stated),8.5,15.7,2502,4.9,1.5,4.0,-24.1
Cc1ccccc1N1CCN(C2CCCN(C(=O)CCC3(C)CC3)C2)CC1 (configuration not stated),0.9,-4.4,5710,-3.6,1.9,-4.1,-18.8
Fc1ccc2c(c1)nnn2C1CCN(Cc2c(Cl)cccc2Cl)CC1,·,·,4370,2.3,-2.2,5.1,-4.6
N#Cc1nc(N2CCCCC2)nc(N2CCOCC2)n1,8.4,5.1,10469,5.6,5.0,1.9,-11.9
Cc1ccc(N=C2NC(=O)/C(=C\c3cccs3)S2)cc1C,9.2,4.5,2500,-14.8,-6.1,-10.0,-16.3
COC(=O)c1ccc(CN2C(=O)NC3(CCC(C)CC3)C2=O)cc1 (configuration not stated),6.9,-4.9,3152,-1.4,2.4,3.9,-13.2
CCn1nc(C)c(C=NNC(=S)Nc2ccc(Cl)cc2Cl)c1C,-8.6,5.2,·,-5.6,·,-16.9,·
Cc1ccc(-c2ccc(S(=O)(=O)NCc3ccco3)cc2)cc1,5.4,4.4,5166,-0.4,-0.9,8.3,-25.9
CCC(C)NC(=O)CSC1=Nc2ccccc2C2=NC(CC(=O)NCc3ccc(F)cc3)C(=O)N12 (configuration not stated),-2.2,3.1,3028,-0.9,-9.9,1.4,-14.0
C/C(=N\NC(=O)C(c1ccccc1)c1ccccc1)c1ccccn1,·,·,2541,·,11.6,·,19.8
c1ccc2nc3c(nc2c1)OCC1CCCCN31 (configuration not stated),8.8,-4.4,3702,4.6,-2.3,2.0,-31.7
Nc1c(-c2ccccc2)cnn1-c1cccc([N+](=O)[O-])c1,5.4,7.6,17591*,5.3,-6.4,1.2,-18.3
COc1cc(C2/C(=C(\O)c3ccc4c(c3)OCCO4)C(=O)C(=O)N2c2nnc(C)s2)cc(OC)c1OC (configuration not stated),-9.7,-6.0,4185,0.7,0.5,1.8,-18.8
Cc1ccc(-c2nc3sc(=Cc4ccco4)c(=O)n3n2)cc1,-8.6,-7.2,·,-3.8,·,-6.5,·
Cc1cc(C)n(Cc2ccc(F)cc2)c(=O)c1C#N,3.8,7.2,10750,2.8,3.1,-0.3,-8.2
O=C(c1ccco1)N1CCN(c2ccnc3cc(Cl)ccc23)CC1,5.5,-0.2,2518,3.9,8.5,-3.0,0.3
CCC(=O)Nc1cc2nn(-c3ccccc3)nc2cc1Cl,·,·,4037,1.3,-15.6,0.1,-62.5
COc1ccccc1CN1CCC(n2nccc2NC(=O)CCc2ccccc2)CC1,6.1,9.0,5506,2.2,6.4,0.7,-9.2
Cc1c(OCC(=O)NCC2CCC(C(=O)O)CC2)ccc2c(-c3ccccc3)cc(=O)oc12 (configuration not stated),·,·,5581,3.1,-3.5,5.7,-24.7
Fc1ccc(F)c(C2=NNC(=Nc3ccccc3F)SC2)c1,12.6,10.6,8359,-1.3,-11.5,0.8,-71.3
O=C(Cc1ccccc1)Nc1ccccc1C(=O)N1CCN(c2ccccc2)CC1,8.2,9.8,4490,3.8,-2.3,7.6,0.6
Cc1ccc(-n2c(-c3cc(C)n(C)n3)n[nH]c2=S)cc1,·,·,2854,1.3,7.3,1.2,-16.1
CCCCC(=O)Nc1ccc(NC(=O)C2CC2)nc1,·,·,3618,3.8,-0.1,6.2,-2.0
Cc1nc2c(C(=O)NCCC(C)C)c[nH]n2c(=O)c1Cl,-2.8,4.8,2097,-2.7,-8.3,3.2,0.6
CCCNC(=O)C1CCN(S(=O)(=O)c2cccs2)CC1,10.3,8.9,4990,2.6,-2.5,9.8,-5.4
CCOc1ccc(Oc2ccccc2NC(=O)CSCC(=O)Nc2cc(C)on2)cc1,-4.7,-13.3,·,-1.4,-3.3,0.2,-4.5
Cc1c(NC(=O)C2C3C=CC(C3)C2C(=O)O)c(=O)n(-c2ccccc2)n1C (configuration not stated),10.4,3.3,10633,2.7,-2.2,3.5,-36.9
COc1ccc(CNC(=O)Cn2nc([N+](=O)[O-])cc2C)cc1,16.5,2.1,3960,4.5,-3.2,12.6,-11.5
CN(C)c1ccc(C(=O)Nc2ccc(S(=O)(=O)Nc3nccs3)cc2)cc1,-1.4,-3.6,4339,2.9,4.8,-2.2,-3.7
CCN(CC(=O)Nc1ccccc1OC)C(=O)CN1C(=O)NC(C)(c2ccc(C)cc2)C1=O (configuration not stated),7.3,-2.2,4034,2.7,·,2.4,-23.1
CC(=O)Nc1nc2ccc(-c3nc4ccccc4o3)cc2s1,·,·,4894,-4.1,0.4,-2.4,-103.3
Cn1c(=O)c2ccccc2n(CC(=O)NCCC2=CCCCC2)c1=O,-7.1,2.6,5502,3.2,-2.1,4.0,-10.9
CCCN(Cc1cc2cc(OC)ccc2[nH]c1=O)C(=O)c1ccco1,-14.4,0.2,5981,3.2,-5.1,4.0,-0.9
Cc1cc(N2C(=O)C(O)=C(C(=O)c3cc4ccccc4o3)C2c2ccc([N+](=O)[O-])cc2)no1 (configuration not stated),-5.4,1.4,7406,2.2,7.1,10.2,-12.7
Cc1ccc(-c2nn(-c3cccc(F)c3)cc2CN2CCN(c3ccccn3)CC2)o1,8.7,6.4,3843,4.5,9.2,5.2,-2.6
O=C(N/N=C/c1cccc([N+](=O)[O-])c1)c1ccc(CN2CCOCC2)cc1,·,·,2423,·,-3.6,·,-1.1
O=C(CCC1CCCC1)Nc1cccn(Cc2ccccc2Br)c1=O,0.1,-3.1,4136,-5.3,13.3,17.2,-5.7
